CBX7 inh: CBX7 chromodomain binding inhibitors, primary screen, biochemical, AlphaScreen. Chromobox protein homolog 7 (Homo sapiens), O95931. AlphaScreen His6-CBX7 / biotin-H3K27me3 peptide binding; active compounds read low. normalised signal (fraction of DMSO) (no concentration beside the values). actives 1.1% (n = 66,000). AID 1224903, 2016; in the data active means normalised signal below about 0.5;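 further: 100 nL library stock added to about 20 µL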
Target sequence (O95931 whole entry, looked up): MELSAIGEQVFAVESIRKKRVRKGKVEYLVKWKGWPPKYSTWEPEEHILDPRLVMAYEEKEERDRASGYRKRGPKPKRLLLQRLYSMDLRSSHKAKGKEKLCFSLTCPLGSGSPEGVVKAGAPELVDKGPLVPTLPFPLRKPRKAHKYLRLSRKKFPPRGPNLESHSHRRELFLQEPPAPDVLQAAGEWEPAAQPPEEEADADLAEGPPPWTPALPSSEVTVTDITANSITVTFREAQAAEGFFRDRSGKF
CBX7 inh z-score: further read-out of CBX7 inh, marked with its call; z-score; measured here: z-score of CBX7 signal; some inactives read as strong as hits; reference of the scale not given here;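 same signal on another scale; lower means less binding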
* = called active by the depositor; & = joins results of further samples. This is a subset; count on the stated rates, not on these rows.

Structure	CBX7 inh	CBX7 inh z-score
COc1ccc(CNC(=O)CN(c2ccc(C)cc2)S(=O)(=O)c2cccnc2)cc1	1	-0.036
Cc1cccc(NS(=O)(=O)c2cn(C)cn2)c1	0.83	-2.4
O=C(NCCc1c[nH]c2ccccc12)c1ccc(NC2=NC3CS(=O)(=O)CC3S2)cc1 (stereo not drawn)	0.95	-0.94
Cc1cc2nc(Cc3ccc(F)c(F)c3)c(=O)n(C)c2cc1C	1	-0.07
CC(NC(=O)c1cc2c(s1)CSC2)c1ccccc1 (stereo not drawn)	1.1	0.61
Fc1cccc(F)c1-c1noc(-c2cc(-c3ccncc3)nc3ccccc23)n1	1.2	3.3
Cc1ccc(C(=O)Nc2nc3ccc(S(C)(=O)=O)cc3s2)cc1	1	-0.14
O=C(CCCCCn1c(=O)[nH]c2ccsc2c1=O)NCCc1ccc(Cl)cc1	0.99	-0.31

Structure	CBX7 inh	CBX7 inh z-score
COc1cc2c(C(=O)N(C)c3ccc(F)cc3)cn(CC(C)C)c(=O)c2cc1OC	1	0.49
CCCN1CCN(CCCNC(=O)CCNC(=O)Cn2ccc3ccccc3c2=O)CC1	1.1	1.4
CCC(CC)C(=O)N1CC(=O)Nc2ccc(F)cc2C1c1ccc(F)cc1 (stereo not drawn)	1	0.029
COc1ccccc1CNC(=O)c1cc(-c2ccc(C)c(C)c2)nc2ccccc12	1.2	1.6
Cc1ccc(-c2nnc(NCc3ccccc3)c3ccccc23)cc1S(=O)(=O)NCC1CCCO1 (stereo not drawn)	0.8	-0.23
COc1ccc(NC(=O)c2cc(-c3cccc(Cl)c3)on2)cc1	1.2	2.1
CN(C)CCNC(=O)c1ccc2c(c1)N(Cc1ccc(F)cc1)C(=O)c1ccccc1S2(=O)=O	1.1	1.6
Cc1c(Cl)cccc1NS(=O)(=O)c1ccc2c(c1)CCC(=O)N2	0.96	-0.86

Structure	CBX7 inh	CBX7 inh z-score
Cn1c(C(=O)N2CCC(C(=O)NCCc3ccc(S(N)(=O)=O)cc3)CC2)cc2sccc21	0.98	-0.27
CN1CCN(Cc2c(O)ccc3c(=O)c(-c4ccccc4)coc23)CC1	0.91	-1.8
O=C(Cn1cnc2sc3c(c2c1=O)CCCC3)Nc1ccc(Oc2ccccc2)cc1	0.99	-0.16
Cc1cc(Br)ccc1NC(=O)Cc1c(C(=O)O)[nH]c2ccccc12	1.1	2.2
CC(C)(C)NS(=O)(=O)c1ccc2c(c1)NC(=O)CC(=O)N2	1.1	3.7
O=C(Cn1ncc2c1-c1ccccc1OC2)Nc1nc2ccccc2s1	0.89	-1.5
CCOC(=O)N1CCN(C(=O)c2ccc3nc(N4CCOCC4)sc3c2)CC1	1.1	1.2
COc1ccccc1NC(=O)c1c(-c2ccccc2Cl)noc1C	1	0.63

Structure	CBX7 inh	CBX7 inh z-score
CC1C2c3ccccc3C(c3ccccc32)C1C(=O)Nc1ccc(Cl)c(Cl)c1 (stereo not drawn)	1.1	1.6
CCOc1ccc(C(=O)N2CC(=O)Nc3ccc(Br)cc3C2c2ccc(F)cc2)cc1 (stereo not drawn)	0.94	-0.87
CCN(CC)S(=O)(=O)c1ccc(C(=O)Nc2sc3c(c2C(N)=O)CCN(C)C3)cc1	0.89	-1.9
COc1ccc(NC(=O)Nc2ccc3snnc3c2)cc1OC	0.95	-2.1
Cc1c(C(=O)NC(C)C)oc2ccc(S(=O)(=O)N3CCC4(CC3)OCCO4)cc12	1.2	1.8
CCN(CCNC(=O)c1cc(=O)[nH]c2ccc(S(=O)(=O)N3CCCCCC3)cc12)c1ccccc1	0.95	-0.52
COc1cccc(-n2nc(C(=O)Nc3cc(C)on3)c3ccccc3c2=O)c1	1	0.44
CCC(C)NC(=O)c1cnn2c(C)c(Cc3c(C)cc(C)cc3C)c(C)nc12 (stereo not drawn)	1	0.3

Structure	CBX7 inh	CBX7 inh z-score
Cc1ccc2nc(-c3ccc(NC(=O)COc4ccc(Cl)c(C)c4)cc3)sc2c1	0.98	-0.6
Cc1cc(OCC(O)CN2CCCCC2)ccc1Cl (stereo not drawn)	1.1	1.2
Nc1ncc(-c2nc3cc(Cl)ccc3o2)cn1	1.1	0.69
CC(=O)Nc1ccc(Nc2nc(-c3cccnc3)cs2)cc1	0.99	-0.21
CCOC(=O)CNC(=O)c1cc2c(C)nn(-c3ccccc3)c2s1	1.1	4.2
Clc1ccc2nc(N3CCN(c4ccccc4)CC3)nc(-c3ccccc3)c2c1	1.2	0.64
COc1ccc(NC(=O)c2cnc3sccn3c2=O)c(OC)c1	1.1	0.78
O=C(NCCCn1ccnc1)c1cc2nc(-c3ccc(Br)cc3)cc(C(F)(F)F)n2n1	0.81	-4.4

Structure	CBX7 inh	CBX7 inh z-score
Cc1sc2ncn(CC(=O)NC3CCCCC3)c(=O)c2c1S(=O)(=O)N1CC(C)CC(C)C1 (stereo not drawn)	1.1	0.76
O=C(NC1CCCc2ccccc21)c1cccc(NC2=NC3CS(=O)(=O)CC3S2)c1 (stereo not drawn)	0.84	-1.7
COc1ccc(-n2ccnc2SCC(=O)NCc2ccc(F)cc2)cc1	0.79	-0.28
COc1ccc(-n2c(/C=C/c3cn(C)c4ccccc34)nc3ccccc3c2=O)cc1	0.93	-1.9
Cc1nc2sccn2c1-c1csc(Nc2ccccn2)n1	1&0.91	-0.14&-0.1
CC(C)c1ccc(NC(=O)C(c2ccc3c(c2)OCO3)N2CCc3ccccc32)cc1 (stereo not drawn)	0.66	-2.1
COc1ccc(-n2nc(C(=O)NCC(=O)NCc3ccc(F)cc3)c3ccccc3c2=O)cc1	0.98	-0.47
CCOc1nc(Nc2ncc(O)[nH]2)nc2ccc(C)cc12	0.89	-1.8

Record cards, from the list above.
Listed for O=C(NC1CCCc2ccccc21)c1cccc(NC2=NC3CS(=O)(=O)CC3S2)c1 (stereo not drawn) : CBX7 inh: 0.84; CBX7 inh z-score: -1.7
Listed for Cc1cc(Br)ccc1NC(=O)Cc1c(C(=O)O)[nH]c2ccccc12 : CBX7 inh: 1.1; CBX7 inh z-score: 2.2

Carrying on.
Structure	CBX7 inh	CBX7 inh z-score
CCOC(=O)N1CCN(c2c(N3CCN(c4cc(C)ccc4C)CC3)c(=O)c2=O)CC1	0.94	-1.6
OCCN1CCN(CC#CCn2c3ccccc3c3ccccc32)CC1	1	-0.079
CCOc1ccc(-n2c(Cc3cc(=O)[nH]c(=O)[nH]3)nnc2SCc2c(F)cccc2Cl)cc1	1.1	0.19
COc1ccc(-n2nc3c(c2NC(=O)c2cccc(C)c2)CS(=O)(=O)C3)cc1	0.99	-0.17
Cc1ccccc1C(=O)Nc1ccc2oc(-c3cccnc3)nc2c1	0.99	-0.018
CCn1c(C2CC(=O)N(c3cc(OC)ccc3OC)C2)nc2ccccc21 (stereo not drawn)	1	0.041
Cc1ccc(C(=O)N2CC(=O)Nc3ccc(Br)cc3C2c2ccc(F)cc2)cc1C (stereo not drawn)	0.94	-1.6
CCCCCNC(=O)CCn1c(=O)[nH]c2ccsc2c1=O	1.1	0.89

Structure	CBX7 inh	CBX7 inh z-score
O=C(CCCN1C(=O)CSc2ncccc21)NCc1ccccn1	1	0.064
Cc1ccc(NC(=O)c2oc3ccc(S(=O)(=O)N(C)C4CCCCC4)cc3c2C)c(C)c1	1.1	2.3
COc1cccc(-c2nn(C)c3sc(C(=O)NCc4ccc(F)cc4)cc23)c1	1	0.52
COc1ccc(-c2cc(C(=O)N3CCN(c4ccc(F)cc4)CC3)no2)cc1OC	0.98	-0.2
COc1cc(OC)cc(-c2nc3nc(C)c(CCC(=O)NCc4ccc(C)cc4)c(C)n3n2)c1	0.9	-0.42
C=CCN1C(=O)c2ccccc2Sc2ccc(C(=O)N3CCc4ccccc4C3)cc21	0.57	-6
COc1ccc(-c2noc(CCC(=O)Nc3ccc(OC)c(Cl)c3)n2)cc1	0.97	-0.028
Cc1cccc(-n2ccnc2SCC(=O)Nc2cc(C)ccc2C)c1	0.8	-0.2

Structure	CBX7 inh	CBX7 inh z-score
COc1ccc(-c2n[nH]c(C)c2Oc2ccccc2)c(O)c1C	0.84	-0.76
Cc1ccc(CNC(=O)c2ccc3c(c2)N(Cc2ccc(Cl)cc2)C(=O)CS3)cc1	1.1	1.2
O=C(NCCCN1CCN(C2CCCCC2)CC1)c1csc2c1CCCCC2	1.1	2.7
O=C(Nc1ccc2c(c1)OCCO2)C1c2ccccc2C(=O)N2CCc3ccccc3C12 (stereo not drawn)	0.99	-0.15
Cc1ccc(-n2nc3cc(C)c(NC(=O)c4ccc5c(c4)OCCO5)cc3n2)cc1	1.1	1.4
CCCN1Cc2cccc(C(=O)NCc3ccc(C)cc3)c2C1=O	1	0.0098
Cc1ccc(CNC(=O)c2cc(-c3ccccn3)nc3ccc(S(=O)(=O)N4CCC(C)CC4)cc23)cc1	1	0.95
COc1ccc(OCc2nc(-c3ccc(OC)cc3)no2)cc1	1.4	3.2

Structure	CBX7 inh	CBX7 inh z-score
COc1cc(NC(=O)C2(NS(=O)(=O)c3cccc4cccnc34)CCCCC2)cc(OC)c1	0.94	-2.7
COc1ccc(OC)c(C2CC(=O)Nc3cc(OC)c(OC)cc32)c1 (stereo not drawn)	1.2	0.95
CCN(C(=O)Cn1nc(Cc2ccncc2)c2ccccc2c1=O)c1ccc(C)c(C)c1	0.82	-4.6
CCCN(C(=O)CCc1nc(-c2ccccc2F)no1)c1ccc(CC)cc1	0.9	-2.2
CCOC(=O)CCCCC(=O)c1[nH]c(=O)[nH]c1Cn1cnc2ccccc21	0.99	-0.12
COc1cc2c(c(CO)c1OC)CC1c3c(cc4c(c3OC)OCO4)CCN1C2 (stereo not drawn)	0.99	-0.092
Cc1ccccc1NC(=O)C(c1ccc(Cl)cc1)N1CCOCC1 (stereo not drawn)	1	0.7
CCCOc1cccc(C(=O)Nc2c(C(=O)c3ccc(OC)cc3)oc3ccccc23)c1	1.7	2.3

A second format for part of the listing above:
Compound: CCOC(=O)CCCCC(=O)c1[nH]c(=O)[nH]c1Cn1cnc2ccccc21
  CBX7 inh: 0.99
  CBX7 inh z-score: -0.12
Compound: CCCOc1cccc(C(=O)Nc2c(C(=O)c3ccc(OC)cc3)oc3ccccc23)c1
  CBX7 inh: 1.7
  CBX7 inh z-score: 2.3
Compound: COc1cc2c(c(CO)c1OC)CC1c3c(cc4c(c3OC)OCO4)CCN1C2 (stereo not drawn)
  CBX7 inh: 0.99
  CBX7 inh z-score: -0.092
Compound: COc1cc(NC(=O)C2(NS(=O)(=O)c3cccc4cccnc34)CCCCC2)cc(OC)c1
  CBX7 inh: 0.94
  CBX7 inh z-score: -2.7

Later entries.
Structure	CBX7 inh	CBX7 inh z-score
COc1cccc(NC(=O)c2cnn(-c3ccc(F)cc3)c2C2CCN(C(=O)OC(C)(C)C)CC2)c1	1	0.95
CCc1ccc(NC(=O)C2CCN(S(=O)(=O)c3cnc[nH]3)CC2)cc1	1	0.23
CC(Oc1ccc(F)cc1)C(=O)N(Cc1ccccc1Cl)C1CCS(=O)(=O)C1 (stereo not drawn)	1.1	0.96
CC(C)Cn1cc(C(=O)NCC2CCCO2)c2c3ccccc3n(C)c2c1=O (stereo not drawn)	1	0.26
COCc1nc2ccccc2n1Cc1ccccc1	1	1.8
CCOCCCNC(=O)c1cc(Nc2cccc(SC)c2)nc2ccccc12	1.3	9
O=C(Cc1ccc(-n2c(=O)[nH]c3ccsc3c2=O)cc1)N1CCCCC1	1.2	1.5
CCOC(=O)c1sc2ncnc(Nc3ccc(OCC)cc3)c2c1C	1	0.11

Structure	CBX7 inh	CBX7 inh z-score
COC(=O)c1ccc2c(c1)N(Cc1c(F)cccc1Cl)C(=O)c1ccccc1S2	0.89	-1.7
COc1ccc(-c2[nH]c(=O)[nH]c2-c2ccccc2)cc1	0.78	-2.6
O=c1cc(N2CCC(Cc3ccccc3)CC2)[nH]c(=O)n1Cc1ccc(F)cc1	0.92	-1.5
Cc1ccc(-c2nc3ncccc3o2)cc1NC(=O)c1ccc2c(c1)OCCO2	1	0.7
COc1ccc(CCN2CC(C(=O)NCc3ccc4c(c3)OCO4)CC2=O)cc1OC (stereo not drawn)	1	0.67
O=C(NC1CCCCC1)c1ccc2c(c1)N(Cc1ccccc1Cl)C(=O)CS2	0.99	-0.27
COc1ccc(CCNC(=O)C2(C)CCC(=O)N2Cc2ccccc2Cl)cc1OC (stereo not drawn)	1	0.3
CCC(=O)N1CCc2cc(S(=O)(=O)NC(C(=O)Nc3cc(Cl)ccc3OC)C(C)C)ccc21 (stereo not drawn)	1	1.4

Structure	CBX7 inh	CBX7 inh z-score
COc1cc(OC)c(NC(=O)Cn2cnc3ccccc3c2=O)cc1Cl	1.1	1.4
Cc1cccc(CN2CCN(CC(=O)NCc3ccc(Cl)cc3)C2=O)c1	0.99	-0.32
Cc1ccc(-c2noc(CNc3ccc(Br)cc3)n2)cc1	1	0.02
Cc1ccc(-n2cc(C(=O)Nc3ccc(F)cc3Cl)c3ccccc3c2=O)cc1C	1	0.11
Cc1cc(Br)ccc1NC(=O)Cc1cn(C)c2ccccc12	1	0.39
CCOc1ccc(-n2nc(C(=O)N3CCOCC3)c3ccccc3c2=O)cc1	0.91	-1.1
Brc1ccc(-n2cc(-c3ccccc3)c3c(NCC4CCCO4)ncnc32)cc1 (stereo not drawn)	1.1	2.1

Compound activity (PubChem BioAssay)
